NPR1 antag: Natriuretic polypeptide receptor (hNpr1) antagonism - Primary qHTS. Potency, µM (doses to about 46.3 µM), without a hit: at the highest dose activity change, negative = inhibition, most hits filed as inhibitors. hit rate 1.6% among 76,000. AID 1347048, 2019. HEK293 hNpr1 GloSensor cGMP, ANP-stimulated luminescence; active = well fitted inhibition curve with a large enough effect; inconclusive = small, poorly fitted or top-dose-only effect; inactive = no such curve, though single readings can be large or run the other way;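 note: nearly all actives have a fitted effect of over 60% in size; nearly all hits also lower the signal before the agonist is added; a reference antagonist and vehicle were the controls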
Target sequence (P16066 whole entry, looked up): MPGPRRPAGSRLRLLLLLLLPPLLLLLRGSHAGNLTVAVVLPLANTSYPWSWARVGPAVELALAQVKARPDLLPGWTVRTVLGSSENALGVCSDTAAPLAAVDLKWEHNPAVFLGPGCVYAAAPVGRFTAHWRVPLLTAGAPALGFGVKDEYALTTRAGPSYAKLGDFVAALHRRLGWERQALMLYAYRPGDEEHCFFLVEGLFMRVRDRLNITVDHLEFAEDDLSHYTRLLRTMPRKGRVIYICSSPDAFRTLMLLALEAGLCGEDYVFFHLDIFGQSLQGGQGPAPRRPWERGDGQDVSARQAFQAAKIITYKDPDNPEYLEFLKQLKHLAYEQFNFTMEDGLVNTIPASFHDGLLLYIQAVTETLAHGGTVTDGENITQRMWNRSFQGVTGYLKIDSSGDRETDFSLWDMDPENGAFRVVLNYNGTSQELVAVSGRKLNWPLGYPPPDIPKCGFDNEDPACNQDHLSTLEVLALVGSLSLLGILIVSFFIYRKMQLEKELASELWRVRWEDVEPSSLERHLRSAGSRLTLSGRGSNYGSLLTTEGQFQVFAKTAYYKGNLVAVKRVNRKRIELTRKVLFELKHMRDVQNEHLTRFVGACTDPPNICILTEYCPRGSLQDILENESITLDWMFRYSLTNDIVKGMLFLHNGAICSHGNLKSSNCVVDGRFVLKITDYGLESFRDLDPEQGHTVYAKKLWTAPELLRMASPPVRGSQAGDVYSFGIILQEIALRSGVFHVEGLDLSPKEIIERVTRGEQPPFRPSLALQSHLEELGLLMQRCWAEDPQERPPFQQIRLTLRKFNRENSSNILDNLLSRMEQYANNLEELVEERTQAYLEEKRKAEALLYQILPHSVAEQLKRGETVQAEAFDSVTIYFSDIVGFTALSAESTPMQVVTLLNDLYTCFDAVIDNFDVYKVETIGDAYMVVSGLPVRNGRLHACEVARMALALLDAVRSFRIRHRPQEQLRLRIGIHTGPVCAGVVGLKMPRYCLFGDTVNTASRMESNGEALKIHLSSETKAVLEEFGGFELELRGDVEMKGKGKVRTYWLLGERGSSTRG
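Compound pre-incubated 30 min at room temperature on GloSensor-loaded HEK293 cells stably carrying hNpr1 and the pGS-40F cGMP biosensor. Stimulation uses hNppA at 0.1 nM final; luminescence is taken at baseline and 20 min post-agonist.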
* marks the source's active call; other numbers are inactive results; u = inconclusive; [ ] = another dose, or the depositor's remark. % is set by controls: 0 for no effect and ±100 for the full control effect; potency is the fitted concentration of half-maximal effect.

NPR1 antag | Structure
-15% | O=C(c1ccccn1)N1CCCC1c1nc(C2CCOCC2)no1 (centres undefined)
15% | O=C(c1cccc(Cl)c1)N1CCCC(c2nn(-c3ccccc3)c(=O)[nH]2)C1 (centres undefined)
u | CC1(COc2ccccc2)COc2ccc(C(=O)Nc3ccc4[nH]ccc4c3)cc2N1 (centres undefined)
-1% | CC(C)Cc1cc(C(=O)N2CCOC(C(F)(F)F)C2)n[nH]1 (centres undefined)
3% | CCN1CCN(C(=O)c2coc(COc3ccc4c(c3)OCO4)n2)CC1(C)C
1% | COc1cccc(-c2nc(C3CC(=O)N(c4ccc(C)cc4)C3)no2)c1 (centres undefined)
-23% | CN1c2cc(C(=O)Nc3cccc(F)c3)ccc2C(=O)N2CCCCC21 (centres undefined)
-2%[70.6 µM] | COc1cc(Nc2ccc3nnc(-c4ccc(C)cn4)n3n2)cc(OC)c1OC

By substructure, the entries above with four or more nitrogen atoms
NPR1 antag | Structure
-15% | O=C(c1ccccn1)N1CCCC1c1nc(C2CCOCC2)no1 (centres undefined)
15% | O=C(c1cccc(Cl)c1)N1CCCC(c2nn(-c3ccccc3)c(=O)[nH]2)C1 (centres undefined)
-2%[70.6 µM] | COc1cc(Nc2ccc3nnc(-c4ccc(C)cn4)n3n2)cc(OC)c1OC

(more compounds)
NPR1 antag | Structure
-22% | Cc1ccc(N2CC(c3noc(-c4ccccc4Cl)n3)CC2=O)cc1 (centres undefined)
1% | COc1cccc(OC)c1C(=O)N1C(C(=O)NCc2cccc(F)c2)COC12CCCCC2 (centres undefined)
1%[70.6 µM] | CN(C(=O)c1ccccn1)C1CCc2ccccc21 (centres undefined)
2%[70.6 µM] | CC(C)CC(=O)N[C@H](C)c1c(-c2ccc(F)cc2)noc1C(=O)O
1% | O=C(Nc1ccc(F)cc1F)C1(CCO)CCN(c2ncccn2)C1 (centres undefined)
0.63µM* | O=C(NCc1ccc(F)cc1)N1CC(Oc2ccc(-c3nc(-c4ccccc4)no3)cc2)C1
2% | CCc1nc2c(c(-c3ccc(O)cc3)n1)CCN(Cc1ccsc1)CC2
2% | Cn1nccc1C(=O)N1CCC(c2noc(C3CC3)n2)C1 (centres undefined)

Following part
NPR1 antag | Structure
-15% | O=C(CN1CCCCCC1)N1CCC2(CC1)CN(Cc1ccccc1)CC2CO (centres undefined)
-14%[70.6 µM] | c1c[nH]c(-c2nc3ncccc3[nH]2)c1
u | CC1(C)[C@H](Cc2cc(COc3ccccc3)on2)C[C@@H]1NC(=O)C1CCC1
0% | CNC(=O)[C@@H]1CN(C(=O)C2(c3ccccc3)CC2)C[C@H]1c1n[nH]c(C)n1
2% | O=C(CCCc1ccccc1)N1C[C@@H](CO)[C@H](c2ccncc2)C1
-1%[70.6 µM] | O=C(CC[C@@H]1CNC(=O)[C@@H]2C[C@H](NC(=O)c3cccc(F)c3)CN12)NCc1cccnc1
4%[70.6 µM] | CC(C)(C)CC(=O)Nc1ccc([C@@H](O)[C@H]2COCC(=O)N2Cc2ccccn2)cc1
2% | O=C(c1n[nH]c2c1CCCCCC2)N1CCc2nc3cc(-c4ccccc4)[nH]n3c(=O)c2C1

The list goes on.
NPR1 antag | Structure
-5% | COc1ccc(CN2CCCC3(CN[S+](=O)([O-])c4ccccc4N3)C2)cc1 (centres undefined)
-12% | O=C(CC1CCOCC1)NCc1ccc(F)cc1
10% | O=C1NC2(CCN(Cc3cccc4ccccc34)C2)Oc2ccccc21 (centres undefined)
2% | COCCC1(NS(=O)(=O)c2cccnc2)CCN(S(C)(=O)=O)CC1
-3% | Cc1noc(C)c1CC(=O)N1CCCC(COc2ccccc2C(=O)NC2CC2)C1 (centres undefined)
2%[70.6 µM] | COc1ccc(C(=O)N2C[C@@H]3C[C@H]2C(=O)Nc2ccccc2O3)cc1
11%[70.6 µM] | COc1ccc(C(=O)N2CCC3(C2)C(=O)N(C)c2ccccc23)cc1 (centres undefined)
1% | O=C1CCN(C(=O)c2cccs2)CCCC(c2nc(-c3ccccc3)no2)CCN1 (centres undefined)

Continuation:
NPR1 antag | Structure
0% | CCc1ccc(CNC(=O)CN2C(=O)NC3(CCCCC3)C2=O)cc1
-23% | Cc1ccsc1CN1CCOc2ccc(C(=O)NCc3ccccc3F)cc2C1
2% | CC(C)CNC(=O)C(NC(=O)c1ccccc1Cl)C1CCN(C(=O)c2cccc(F)c2)CC1 (centres undefined)
0% | COc1ccc(C(=O)N2CCCC3(CN[S+](=O)([O-])c4ccccc4N3)C2)cc1 (centres undefined)
-6% | COc1cccc(CC(=O)N2CCC3(CC2)NC(=O)N(c2cccc(Cl)c2)N3)c1
1%[70.6 µM] | Fc1ccc2c(c1)nc1n2[C@@H](CN(Cc2ccccn2)Cc2ccccn2)COC1
3.5µM* | CC(C)(C)CC(=O)Nc1cnc(-c2ccc(Cl)cc2)nc1
1% | CCOCC(=O)N1CCC2(CC1)CC(N(Cc1ccc(F)cc1)C1CC1)CCO2 (centres undefined)

Next compounds
NPR1 antag | Structure
3% | CCn1cc(CN2CCCC(CNC(=O)c3cc(OC)cc(OC)c3)C2)c(C)n1 (centres undefined)
0% | CCNC(=O)N1CCC(N2C(=O)C3(CCCC3)C2c2ccccc2)CC1 (centres undefined)
-1% | c1coc(CN2CCc3c(sc4ncnc(N5CCOCC5)c34)C2)c1
2% | COc1ccc(NC(=O)N2CCC(Cc3noc(C4CC4)n3)C2)cc1 (centres undefined)
-15% | CS(=O)(=O)N1CCC(OC2CCN(C(=O)NCc3ccc(F)cc3)CC2)CC1
-14% | CC(C)n1cc2cc(C(=O)NC3CCCCCC3)sc2c1
11% | O=C(c1ccccc1F)N1CCC2(CC1)CN[S+](=O)([O-])c1ccccc1N2
0% | COc1cccc(OCC2CN(Cc3cccc(C(F)(F)F)c3)C(=O)c3c(ccnc3-c3ccc(OCC(=O)O)cc3)O2)c1OC (centres undefined)

Pulled by compound from the entries so far, 3 records:
NPR1 antag | Structure
2% | CC(C)CNC(=O)C(NC(=O)c1ccccc1Cl)C1CCN(C(=O)c2cccc(F)c2)CC1 (centres undefined)
1% | O=C(Nc1ccc(F)cc1F)C1(CCO)CCN(c2ncccn2)C1 (centres undefined)
1% | CCOCC(=O)N1CCC2(CC1)CC(N(Cc1ccc(F)cc1)C1CC1)CCO2 (centres undefined)

(next part)
NPR1 antag | Structure
-14% | O=C([C@H]1C[C@H](Oc2cccnc2)CN1C(=O)Nc1ccccc1)N1CCOCC1
-18%[70.6 µM] | CC(C)C[C@@H]1N[C@H](C(=O)NCC2CC2)Cc2cn(Cc3ccccn3)c3cccc1c23
-2% | COc1cccc(C(=O)N2CCC3(CC2)CC(N(Cc2ccccc2)C2CC2)CCO3)c1 (centres undefined)
1%[70.6 µM] | COc1ccc(CNC(=O)[C@@H]2CCC[C@@H](NCc3cccnc3)CN(C)C(=O)C2)cc1
-1% | COC(=O)CNC(=O)C1c2ccccc2C(=O)N(C2CCCC2)C12CCCCC2 (centres undefined)
6% | CN1CCC2(CC1)CCN(Cc1ccc(OCC(O)CN3CCCCC3)cc1)C2 (centres undefined)
-9%[70.6 µM] | COc1ccc(NC(=O)c2cnc3n2CCN(Cc2ccccc2)CC3)cc1
8% | FC(F)(F)c1cccc(C2=NOC3(CCCN(Cc4cccc5ccccc45)C3)C2)c1 (centres undefined)

Remaining list, next part
NPR1 antag | Structure
8% | COCCCNC(=O)[C@@H]1Cc2cn(Cc3cc(C)on3)c3cccc(c23)[C@H](CC(C)C)N1
-1% | CSCCc1nc(Cn2cccnc2=O)n(-c2ccccc2C(=O)O)n1
0% | CC#CC(=O)N1CCCC(C(=O)Nc2cccc(-c3cccc(C)c3)c2)C1 (centres undefined)
-2% | O=C(C1CCCC1)N1CCC(N2CC(OCC3CC3)C23CCOCC3)CC1 (centres undefined)
3% | Cc1ccc(S(=O)(=O)N2CCN(C3CCN(Cc4cccnc4)C3=O)CC2)cc1C (centres undefined)
5% | O=C1C(N2CCN(S(=O)(=O)c3cc(F)cc(F)c3)CC2)CCN1CCc1ccccc1 (centres undefined)
4% | COc1cc(F)c(CN2CCC3(CCCNC3)C2)c(F)c1 (centres undefined)
-29% | CCc1nn(-c2ccc(F)cc2)c(Oc2ccccc2)c1CCC(=O)N(C)C(C)C

Next part.
NPR1 antag | Structure
6% | O=C(O)CO[C@@H]1COCC[C@H]1NC(=O)c1cccc2c1OCCO2
-27%[70.6 µM] | CNC(=O)CCn1ncc2cc(OCc3ccccc3-c3cc(F)ccc3C)ccc21
6% | CN(CC(=O)N1CC[C@H](N(C)C)[C@H](CCC(=O)O)C1)Cc1ccccc1F
4% | Cc1cccc(CN2CCc3c(sc4ncnc(N(C)C)c34)C2)c1
-11% | CCC(C)NC(=O)C(NC(=O)c1ccccc1Cl)C1CCN(C(=O)c2cccc(OC)c2)CC1 (centres undefined)
12% | COc1ccc2[nH]c3c(c2c1)CCNC31CCN(C(=O)C2CC2)CC1
3% | CCn1c(=O)c2c(cc(C)n2C)n(CC(=O)Nc2cc(Cl)ccc2C)c1=O
0% | O=C(Nc1nccs1)C1c2ccccc2C(=O)N(Cc2ccccc2)C12CCCC2 (centres undefined)

Remaining list, next part.
NPR1 antag | Structure
-1% | CN(C)c1nc2c(c(=O)[nH]1)CCN(Cc1cc(F)ccc1F)CC2
-12% | COc1ccc(C(=O)N2CCCC3(C2)Nc2cccnc2NC3=NCc2ccccc2)cc1 (centres undefined)
3% | CC(C)n1nc(OC(C)(C)C(=O)NCCc2ccccn2)c2cc(CN3CCOCC3)ccc21
2% | CN(CC1CCOC1)S(=O)(=O)Cc1ccccc1 (centres undefined)
-16% | Cc1oc2ccn(Cc3cccc(F)c3)c(=O)c2c1C(=O)NCc1cccc(F)c1
1% | COc1cccc(-c2ccnc3nc(CCc4ccccc4)nn23)c1
-24%[70.6 µM] | O=C1c2cncnc2OCC(CNC(=O)C2(c3ccccc3)CC2)N1Cc1ccccc1 (centres undefined)
-6% | CN(C)c1nc2c(c(=O)[nH]1)CCN(C(=O)CCc1ccccc1)CC2

(cont.)
NPR1 antag | Structure
-17% | COc1ccc(-n2c(=O)c3c(n2Cc2ccccc2)CN(Cc2c[nH]c4ccccc24)CC3)cc1
-14% | Cc1ccsc1C(=O)N1CCC2(CC1)NC(=O)N(Cc1ccccc1)C2=O
-19% | CC1=C[C@@H](CNS(=O)(=O)c2ccc(C#N)cc2)[C@H](C(C)C)C[C@H]1Cc1nnc(-c2ccncc2)o1
-13% | O=C(CCc1cnccn1)N1CCC(CCC(=O)N2CCC(Cc3ccccc3)CC2)CC1
0%[70.6 µM] | CNC(=O)C1(N2CCC[C@H]2C(=O)N(C)CCN(C)C)CCOCC1
-1% | Cc1sc2cc(C(=O)NC(C)(C)C)[nH]c2c1CN1CCCCC1
17% | O=S(=O)(c1ccc(F)cc1)N1CCC2(CC1)CC(OCC1CC1)CCO2 (centres undefined)
3% | COCC(=O)NC1CCN(c2ccc(C)cc2)C1=O (centres undefined)

Later entries
NPR1 antag | Structure
3%[70.6 µM] | Cn1cccc1C(=O)N1CC[C@@H]2NC(=O)[C@H]3C[C@H](NC(=O)C4CC4)CN3C(=O)[C@H]21
-20% | O=C(Cc1cccc(Cl)c1)N1CCC2(CC1)Cc1ccccc1NC2=O
2% | CCOCCCNC(=O)C1(CCO)CC12CCOCC2 (centres undefined)
1%[70.6 µM] | COc1ccccc1-c1cn2c(n1)CO[C@@H](CNCc1ccc(F)c(F)c1)C2
-19% | CCN(C(=O)Cn1cccc1-c1nc(-c2ccc(OC)c(F)c2)no1)c1cccc(C)c1
3% | Cn1nc(C(=O)NCC(=O)N2CCCCCNC(=O)CC2c2ccccc2)c2ccccc21 (centres undefined)
u | CCc1ccc(C(=O)Nc2cccc(-c3nnc4n3CCCC4)c2)cc1
4% | CN(Cc1cccnc1)C1CN(C(=O)c2ccc3ccccc3n2)C1

Part of the list above in order of molar mass, largest number first:
NPR1 antag | Structure
3%[70.6 µM] | Cn1cccc1C(=O)N1CC[C@@H]2NC(=O)[C@H]3C[C@H](NC(=O)C4CC4)CN3C(=O)[C@H]21
-20% | O=C(Cc1cccc(Cl)c1)N1CCC2(CC1)Cc1ccccc1NC2=O
2% | CCOCCCNC(=O)C1(CCO)CC12CCOCC2 (centres undefined)

(more compounds)
NPR1 antag | Structure
3% | O=C(CCc1c[nH]c2ccccc12)NC1CCCc2c1[nH]c1ccc(F)cc21 (centres undefined)
2% | O=C(NCCc1cccs1)C1CCCN(c2cnn(Cc3ccccc3)c(=O)c2)C1 (centres undefined)
5% | Cc1ccc(Cn2c(C3CCN(C(=O)Cc4cccs4)CC3)n[nH]c2=O)cc1
-2%[70.6 µM] | COc1cncc(CN2CCc3ncc(C(=O)Nc4ccccc4)n3CC2)c1
-2% | CC(=O)N1CCC(C(=O)N[C@H]2CCN3C(=O)N(c4ccc(OC(F)(F)F)cc4)C(=O)[C@@H]3C2)CC1
-21% | COc1ccc(CCC(=O)N2CCCN(c3cc(-c4ccc(OC)cc4)[nH]n3)CC2)cc1
u | Cc1cccc2nc(C(=O)N3CCn4nc(Cc5ccccc5)cc4C3)cn12
-1% | c1cc(-c2ccco2)cc(-c2nc(C3CCOC3)no2)c1 (centres undefined)

From PubChem

A portion of the library; count on the stated rates, not on these rows.
